Vif A3G: inhibitors of Vif binding to APOBEC3G peptide, primary screen, biochemical, TR-FRET, GST-Vif 1-94, biotin-A3G peptide, dose response retest (AID 1117319); TR-FRET GST-Vif / biotin-A3G peptide binding; higher % means a stronger effect; test concentration not given here; strong numbers were not always called active; 0.57% of 260,000 active; inhibition, %, or IC50 in µM where a hit was titrated;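 active = above the screen mean plus three standard deviations and confirmed in dose response; inconclusive = results disagree or hit not tested in dose response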;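 also: Vif residues 1-94 fused to GST binding biotinylated APOBEC3G peptide 110-148; 0% = full assay without inhibitor and 100% = GST in place of GST-Vif; retest series ran down from 100 µM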
FGF22 binding: binders of recombinant human FGF22 by thermal shift; SYPRO orange fluorescence; percent of sucrose octasulfate shift, DMSO zero; AID 651658; 1.5% of 340,000 active; Q9HCT0; calls only at 9.99 µM;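 active = melting point raised past a set limit in the mean and every replicate; inconclusive = no clear call; three in four hits are not shown here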
Target sequence (Q9HCT0 whole entry, looked up): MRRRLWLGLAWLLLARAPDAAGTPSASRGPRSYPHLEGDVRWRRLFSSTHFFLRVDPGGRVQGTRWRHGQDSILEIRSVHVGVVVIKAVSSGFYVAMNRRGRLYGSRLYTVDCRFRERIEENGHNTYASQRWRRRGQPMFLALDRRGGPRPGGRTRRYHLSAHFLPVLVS
ALR inh: blocks human ALR sulfhydryl oxidase activity; purified ALR, DTT oxidation, H2O2 HRP-luminol luminescence; inhibition, % (no concentration beside the values); 3.8% of 290,000 active;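 active = mean and each replicate at 75% or more; inconclusive = only one of the two met; inactive = neither met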;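 also: stock transfer was 7.5 nL into about 7.5 µL; 0% = neutral wells and 100% = wells with inactivated enzyme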
Target sequence (P55789 whole entry, looked up): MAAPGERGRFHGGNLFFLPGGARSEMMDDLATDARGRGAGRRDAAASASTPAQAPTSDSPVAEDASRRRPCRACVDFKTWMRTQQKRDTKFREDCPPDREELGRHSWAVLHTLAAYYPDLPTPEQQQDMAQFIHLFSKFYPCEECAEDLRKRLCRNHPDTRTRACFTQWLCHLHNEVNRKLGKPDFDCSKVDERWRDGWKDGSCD
Ecoli growth: inhibitors of Escherichia coli growth; OD600, 23 h; stronger effect = lower value; 0.21% of 330,000 active; OD600 absorbance (concentration not given with the values); AID 1053175;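 active = OD600 absorbance below the run mean of sample wells minus 3.6 SD, in any replicate, cut at about 0.56 in these data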;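 also: stock transfer was 300 nL into about 60 µL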
HNF4A DNA FP: change in binding of human HNF4 alpha to DNA. HNF4a-FITC DNA binding, fluorescence polarization, 1 h. activity change, % at 10 µM. 0.3% of 360,000 active. AID 1224865; in the data active = activity change above about 30%, passing the limit was not always enough;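 also: controls were the assay level and a saturating level of protein; the project sought stronger binding though the title names inhibitors; some compounds called inactive have numbers as strong as hits; positive values seem to mean higher polarization but the record does not say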
MLL AF4-AF9 inh: MLL-AF4/AF9 protein interaction inhibition; inhibition, % at 10 µM; AID 651704; 0.47% of 350,000 active; AlphaScreen, biotin-AF4 peptide binding to FLAG-AF9; P42568;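 active = every replicate reaching a set inhibition limit, whatever the replicate mean, cut at about 25% in these data; inconclusive = mean inhibition reaches that limit but some replicates miss it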;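 also: 0% = plate neutral control median and 100% = total signal loss; the record names both 10 and 1 µM as test concentration; the first replicate is given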
Target sequence (P42568 whole entry, looked up): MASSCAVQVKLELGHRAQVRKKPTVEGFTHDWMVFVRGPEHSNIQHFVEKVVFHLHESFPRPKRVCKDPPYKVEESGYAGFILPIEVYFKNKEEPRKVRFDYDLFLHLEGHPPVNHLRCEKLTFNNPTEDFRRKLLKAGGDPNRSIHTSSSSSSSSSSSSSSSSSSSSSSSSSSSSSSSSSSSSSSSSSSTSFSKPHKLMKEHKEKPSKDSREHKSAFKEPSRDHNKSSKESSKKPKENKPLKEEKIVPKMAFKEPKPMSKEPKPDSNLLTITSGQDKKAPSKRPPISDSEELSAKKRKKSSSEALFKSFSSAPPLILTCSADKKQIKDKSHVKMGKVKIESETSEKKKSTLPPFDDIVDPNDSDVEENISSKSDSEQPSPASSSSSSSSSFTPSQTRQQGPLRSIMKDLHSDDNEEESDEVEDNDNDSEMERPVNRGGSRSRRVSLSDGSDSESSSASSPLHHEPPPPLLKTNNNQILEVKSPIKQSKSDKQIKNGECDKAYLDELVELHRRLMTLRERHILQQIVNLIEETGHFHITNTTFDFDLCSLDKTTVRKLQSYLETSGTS
rRNA inh HTS: inhibitors of bacterial rRNA selective over humanized ribosomes; E. coli WT GFP vs humanized-ribosome RFP mutants, fluorescence, 24 h; stronger effect = lower value; DMSO median 0, no signal -100; 1.6% of 350,000 active; GFP signal change (wild-type ribosome), % (no concentration beside the values);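 active = significant combined selectivity score with lowered wild-type GFP, culture density cut under 30%, mutant RFP and density less affected; inactive = any of these conditions unmet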; also: one replicate is shown; some compounds called inactive have numbers as strong as hits
rRNA inh HTS OD600: further read-out of rRNA inh HTS, marked with its call; OD600 change, %; measured here: OD600 growth;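 optical density of the mix in the first replicate; 0 = DMSO median and -100 = no signal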
rRNA inh HTS RFP: further read-out of rRNA inh HTS, marked with its call; RFP signal change, %; measured here: RFP humanized mutant strains;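 first replicate; 0 = DMSO median and -100 = no signal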
* = called active by the depositor; i = inactive; u = inconclusive; x = not tested or not shown; + = active, no number; & = joins results of further samples. Some of the compounds tested; count on the stated rates, not on these rows.

Vif A3G | FGF22 binding | ALR inh | Ecoli growth | HNF4A DNA FP | MLL AF4-AF9 inh | rRNA inh HTS | rRNA inh HTS OD600 | rRNA inh HTS RFP | SMILES
x | i | x | x | x | -2.2 | 1 | -1 | -1.2 | O=C(C[C@@H]1CC[C@H](NC(=O)Nc2cc(F)ccc2F)[C@@H](CO)O1)NCc1ccncn1
-8% | i | -10 | 0.6 | -2.6 | 0.0 | 9 | 0 | 2.2 | CCOc1ccccc1N1CC(C(=O)NNC(=O)c2ccc(F)cc2)CC1=O (configuration not stated)
-5% | i | -7 | 0.68 | 1.4 | -2.1 | 2 | 6 | -1.6 | N#CC1CN(C(c2ccccc2)c2ccccc2)C1
x | i | -3 | 0.69 | 4.5 | -0.5 | 5 | 10 | -5.1 | N#CCN=C(c1ccccc1)c1ccccc1
1% | i | -5 | 0.63 | 0.0 | 1.0 | -5 | -4 | -0.4 | CCCCN(C(=O)CSc1nn(-c2ccc(F)cc2)c(=S)s1)c1c(N)n(CCCC)c(=O)[nH]c1=O
2% | i | x | 0.71 | 11 | -2.9 | -1 | 0 | 10 | Cc1cnc([N+](=O)[O-])n1CCOC(=O)NC(=O)c1ccc(C(F)(F)F)cc1
14% | i | -13 | x | 0.5 | 2.0 | 5 | 11 | -3.0 | Cc1cccc(/C=N/NC(=O)NC2CCCCC2)c1
7% | x | -2 | 0.73 | 4.5 | x | x | x | x | Cc1ccc(-c2nnn(CC(=O)N(Cc3ccco3)C(C(=O)NC3CCCC3)c3cccs3)n2)o1 (configuration not stated)
x | i | -2 | x | -0.2 | 1.2 | 1 | -4 | 9.5 | C/C=C(/C)C(=O)Nc1cccc(C2=NOC3(C2)C[C@H](C(N)=O)N(C(=O)COc2ccc(Cl)cc2)C3)c1 (some centres not stated)
1% | x | -4 | 0.68 | 0.0 | x | x | x | x | CC1CCCC(NC(=O)CSc2nnc(N)s2)C1C (configuration not stated)
2% | x | -2 | 0.72 | -1.5 | x | x | x | x | CCn1nc(CCC(=O)O)c2ccccc2c1=O
x | i | x | x | x | 0.7 | -2 | 5 | -2.1 | N#C[C@@H]1[C@H](c2ccc(-c3cccnc3)cc2)[C@H](CO)N1C(=O)C1CCOCC1
x | i | 2 | 0.71 | -0.8 | -0.8 | 11 | 13 | 1.4 | COc1ccccc1CNC(=O)COC(=O)Cc1c(F)cccc1Cl
4% | i | x | 0.69 | 0.1 | 0.0 | 2 | -7 | 0.9 | Cc1cc(C(=O)COC(=O)/C=C/c2cccc(Br)c2)c(C)n1C
x | i | x | x | x | 0.5 | 0 | 3 | -1.1 | Cc1noc(C)c1NC(=O)Nc1ccc2c(c1)C(=O)N([C@H](C)CO)C[C@@H](C)[C@H](CN(C)S(=O)(=O)c1cccs1)OCCCC[C@@H](C)O2
1% | i | -2 | 0.68 | 1.6 | -97 | 4 | -1 | 16 | COc1ccc(C2SCCN2C(=S)Nc2cccc(C(F)(F)F)c2)cc1 (configuration not stated)

Complete entries, looked up by structure. Screens in order: Vif A3G | FGF22 binding | ALR inh | Ecoli growth | HNF4A DNA FP | MLL AF4-AF9 inh | rRNA inh HTS | rRNA inh HTS OD600 | rRNA inh HTS RFP
`CC1CCCC(NC(=O)CSc2nnc(N)s2)C1C` (configuration not stated) across the screens: 1% | x | -4 | 0.68 | 0.0 | x | x | x | x
`Cc1cc(C(=O)COC(=O)/C=C/c2cccc(Br)c2)c(C)n1C` across the screens: 4% | i | x | 0.69 | 0.1 | 0.0 | 2 | -7 | 0.9
`CCn1nc(CCC(=O)O)c2ccccc2c1=O` across the screens: 2% | x | -2 | 0.72 | -1.5 | x | x | x | x

Further results.
Vif A3G | FGF22 binding | ALR inh | Ecoli growth | HNF4A DNA FP | MLL AF4-AF9 inh | rRNA inh HTS | rRNA inh HTS OD600 | rRNA inh HTS RFP | SMILES
3% | x | -26 | 0.73 | -1.2 | x | x | x | x | COc1cc(C(=S)N2CCCC2)ccc1OC(=O)c1ccc(Cl)cc1[N+](=O)[O-]
x | i | -7 | 0.72 | 0.8 | 2.7 | 10 | 18 | -0.1 | c1csc(CNc2ncnc3ccc(-c4ccoc4)cc23)c1
-3% | i | -4 | 0.7 | 0.1 | 1.0 | -26 | -28 | -4.2 | CC(C)(C)C1CCC(C(=O)Nc2cccnc2)CC1 (configuration not stated)
5% | i | -10 | 0.71 | -4.6 | 3.2 | x | x | x | COc1ccc(C2=NN(CN3C(=O)C(=O)c4ccccc43)C(c3cccc([N+](=O)[O-])c3)C2)cc1 (configuration not stated)
0% | x | -1 | 0.66 | 2.9 | x | x | x | x | CCOc1ccc(OCCn2ccnc2)cc1
-4% | i | -2 | 0.61 | 0.0 | -2.1 | 7 | 2 | -4.3 | Cc1nnc(SC(C)C(=O)Nc2nccs2)s1 (configuration not stated)
2% | x | 34 | 0.78 | 0.3 | x | x | x | x | CC(=O)N(c1cccc(C)c1)C1SC(=O)N(c2ccccc2)C1=O (configuration not stated)
-2% | x | -13 | 0.7 | 2.1 | x | x | x | x | CNCC(O)Cn1c(C(F)(F)F)nc2ccccc21 (configuration not stated)
x | i | x | x | 2.4 | 0.2 | -44 | -73 | -8.3 | CSc1ccc(CN2CCC(C)(Oc3cnc(Cl)c4ccccc34)C2)cc1 (configuration not stated)
-3% | x | x | 0.69 | 3.8 | x | x | x | x | O=C(Nc1ccc(Cl)cc1)OCc1cncs1
u | x | -15 | x | -29 | x | x | x | x | O=c1c2c([nH]c3ccccc13)C(=C1CCCC1)CC2
x | i | x | x | x | -1.7 | 3 | 5 | 0.6 | COc1ccc(S(=O)(=O)N[C@H]2C=C[C@@H](CC(=O)O)O[C@H]2CO)cc1
x | + | x | 0.67 | -15 | u | -3 | 2 | -0.2 | CC1=C(C(=O)OC(C)C)C(c2ccc(Cl)cc2)n2c(sc(=Cc3ccc(OCC(=O)O)cc3)c2=O)=N1 (configuration not stated)
5% | x | 20 | 0.68 | 2.9 | x | x | x | x | Cc1ccc(Cn2c(=N)n(CC(O)c3ccco3)c3ccccc32)cc1 (configuration not stated)
22% | i | -12 | 0.72 | 3.1 | -0.8 | 3 | -2 | -12 | O=C(Cn1nnc(-c2cccs2)n1)Nc1ccccc1C(F)(F)F
4% | x | -6 | 0.73 | 1.1 | x | x | x | x | CC1CCCCC12NC(=O)N(CC(=O)NC(=O)NCc1ccco1)C2=O (configuration not stated)
x | i | -17 | x | 2.7 | 9.5 | 6 | 2 | -3.2 | Nc1ncnc2c1ncn2[C@@H]1O[C@H](CO)[C@@H](O)[C@@H]1O
-7% | i | -2 | 0.67 | -0.1 | 1.6 | 3 | 11 | -3.3 | Cc1nn(-c2ccccc2)c(C)c1C(=O)OCC(=O)Nc1ccccc1C(F)(F)F
2% | x | 1 | 0.8 | 0.8 | x | x | x | x | CCc1c(C)nc2[nH]nc(-c3ccccc3C)n2c1=O
x | i | 86* | 0.71 | -1.5 | 1.0 | -32 | -49 | 3.3 | COCc1nnc(NC(=O)c2ccc(S(=O)(=O)N3CCCc4ccccc43)cc2)o1
x | i | -6 | 0.72 | -1.1 | -2.6 | 8 | 12 | 3.3 | CCOc1ccc(C(=O)Nc2ccc(C(F)(F)F)n(C)c2=O)cc1
x | i | x | x | x | 4.6 | -2 | 6 | 0.5 | C[C@H](CO)N1C[C@H](C)[C@@H](CN(C)CC2CCCCC2)Oc2ccc(NC(=O)c3ccncc3)cc2CC1=O
6% | x | -16 | 0.72 | 2.2 | x | x | x | x | CC(C)CCn1c(SCC(=O)OCn2nnc3ccccc3c2=O)nc2ccccc2c1=O
3% | x | -2 | 0.68 | -1.0 | -0.2 | 11 | 4 | -0.7 | CN(CC(=O)Nc1ccc(S(N)(=O)=O)cc1)Cc1ccccc1F
7% | i | 13 | 0.71 | 0.0 | 2.3 | -13 | -10 | -1.2 | COc1ccc(OC)c(NC(=O)Nc2ccc3c(c2)CCC3)c1
-5% | x | 71 | 0.78 | -0.6 | x | x | x | x | Cc1cccc2c1Sc1ccccc1CC2=O
x | i | 13 | 0.71 | 0.3 | 19 | -9 | -24 | -4.9 | Cc1c(C(=O)N(Cc2ccc(N(C)C)cc2)CC2CCCO2)oc2ccccc12 (configuration not stated)
3% | i | x | 0.7 | -2.5 | 1.6 | 1 | 0 | -1.1 | O=C(CN1CCCSc2ccccc21)N1CCN(S(=O)(=O)c2ccccc2)CC1
x | i | -2 | 0.67 | -0.5 | -4.4 | -2 | 21 | -2.2 | COc1ccc(CCNC(=O)c2nnn(CC(=O)Nc3ccc(C)cc3C)c2N)cc1OC
x | i | x | x | -3.1 | 4.9 | 3 | 10 | 4.2 | CCCCN(C)c1c(C)nc2ccc(C(=O)Nc3cc(-c4ccccc4)ccc3OC)cn12
-4% | i | 0 | x | 2.7 | -5.3 | 2 | -1 | 2.1 | Cn1c(=O)c2ncn(CC(=O)N/N=C/C=C/c3ccccc3)c2n(C)c1=O
-1% | i | -2 | 0.65 | -0.5 | 3.6 | 3 | 2 | 4.2 | Cc1cc(C(=O)COC(=O)CNC(=O)c2ccc(F)cc2)c(C)n1Cc1ccco1
x | i | x | x | x | -1.1 | 4 | 21 | -0.2 | CN(C)CC(=O)Nc1ccc2c(c1)[C@H]1C[C@H](CC(=O)NCCc3ccccc3)O[C@H](CO)[C@H]1O2
8% | i | 6 | 0.73 | -0.1 | -2.1 | -44 | -62 | -22 | Cc1ccc(C)c(S(=O)(=O)Nc2nc(C)c(C(=O)Nc3ccccc3)s2)c1
2% | i | 9 | 0.69 | -0.2 | -0.1 | -3 | -2 | 3.6 | CN1CCCC(OC(=O)c2ccc(C#N)cc2)C1 (configuration not stated)
5% | x | -2 | 0.7 | 3.1 | x | x | x | x | Cn1c(=O)c2c(nc(CN3CCOCC3)n2CC(O)CO)n(C)c1=O (configuration not stated)
u | x | 60 | 0.69 | 0.5 | x | x | x | x | Cc1cc(C(=O)NNC(=S)Nc2ccccc2C)cs1
x | i | -1 | 0.69 | -2.9 | -16 | -1 | 2 | -1.4 | CCOC(=O)N1CCC(NC(=O)c2cc(-c3ccc(OC)cc3)nc3ccccc23)CC1
4% | i | -5 | 0.71 | 0.1 | -1.8 | 7 | 6 | 2.0 | Cc1c(Cl)cccc1NC(=O)C1NC(=O)CC1c1ccccc1 (configuration not stated)
-11% | i | x | x | -0.3 | -2.3&-7.0&-1.4 | 1&-2 | 17&-9 | 1.7&-1.7 | C[C@@H]1CCCCO[C@H](CN(C)C(=O)c2ccccc2)[C@@H](C)CN([C@H](C)CO)C(=O)c2cc(NC(=O)c3ccncc3)ccc2O1
1% | i | -4 | 0.64 | 0.9 | -3.6 | 16 | 15 | 2.7 | O=C(C1CCN(S(=O)(=O)c2ccccc2)CC1)N1CCOCC1
-9% | i | x | 0.72 | 2.1 | -6.0 | 11 | 7 | -3.3 | O=C(Cn1nnc2ccccc2c1=O)N[C@H](C(=O)O)c1ccccc1
16% | i | 47 | 0.66 | -3.2 | -3.8 | -22 | -26 | -0.1 | Cc1ccc(S(=O)(=O)N(Cc2n[nH]c(=S)n2-c2ccccc2)c2cccc(Cl)c2)cc1
4% | i | -2 | 0.69 | 0.0 | -1.1 | -2 | -5 | -1.3 | Cc1cc(C)nc(SCc2nnc(SCC(=O)N3CCCc4ccccc43)n2C)n1

Screening results: PubChem BioAssay, several laboratories
